Assay outcomes deposited in PubChem BioAssay by National Center for Advancing Translational Sciences (NCATS).
TRPML1 inh: inhibitors of human TRPML1 channel. TRPML1-inducible cells, Ca2+ dye fluorescence, FDSS; active compounds read low; inhibition of EC80 agonist-evoked calcium signal. activity change, negative = inhibition, % (test concentration not listed). hit rate 0.02% among 390,000; in the data active means activity change below about -50%; inconclusive means about -30% to -50%; inactive means above about -30%;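 note: stimulus is agonist 54-4 at its EC80 concentration; % is set by controls: 0 for no effect and ±100 for the full control effect; compound concentration not given in the record; the text of the record puts the active cut at -80%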
Target sequence (Q9GZU1 whole entry, looked up): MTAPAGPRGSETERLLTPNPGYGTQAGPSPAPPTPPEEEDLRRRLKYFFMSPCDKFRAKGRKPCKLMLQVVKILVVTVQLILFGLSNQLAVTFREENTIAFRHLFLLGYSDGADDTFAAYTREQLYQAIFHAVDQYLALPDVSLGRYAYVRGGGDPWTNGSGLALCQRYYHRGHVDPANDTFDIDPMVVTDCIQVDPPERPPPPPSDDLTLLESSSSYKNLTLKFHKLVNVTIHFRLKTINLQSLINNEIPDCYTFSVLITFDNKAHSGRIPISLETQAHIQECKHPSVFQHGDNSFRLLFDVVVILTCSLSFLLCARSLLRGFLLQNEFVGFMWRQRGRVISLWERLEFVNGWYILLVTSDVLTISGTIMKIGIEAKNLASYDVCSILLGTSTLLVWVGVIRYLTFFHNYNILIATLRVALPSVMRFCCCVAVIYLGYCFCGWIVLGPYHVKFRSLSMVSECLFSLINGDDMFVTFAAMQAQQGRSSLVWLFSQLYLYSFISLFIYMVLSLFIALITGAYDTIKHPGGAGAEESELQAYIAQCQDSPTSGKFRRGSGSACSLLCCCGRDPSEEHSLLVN
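Tet-induced TRPML1-DL cells loaded with Ca8 no-wash calcium dye were read kinetically on FDSS. Compound addition was followed by EC80 agonist 54-4 (4 uM final); inhibition was read over 110 s.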
ClpP mod: qHTS Assay for Activators of ClpP; hit rate 1.9% among 340,000; Potency, µM (titrated, usually from 57.5 µM), for inactives: at the top dose activity change, negative = active; AID 651965, 2013; purified B. subtilis ClpP, FRET peptide cleavage, 20 min; active = well fitted falling curve with a large enough effect; inconclusive = small, poorly fitted or top-dose-only effect; inactive = no such curve, though single readings can be large or run the other way; note: potency is the fitted concentration of half-maximal effect; the source files actives as falling curves though it sought activators and does not explain the sign; nearly all actives have a fitted effect of over 65% in size; many hits overshoot -100%
Target sequence (P80244 whole entry, looked up): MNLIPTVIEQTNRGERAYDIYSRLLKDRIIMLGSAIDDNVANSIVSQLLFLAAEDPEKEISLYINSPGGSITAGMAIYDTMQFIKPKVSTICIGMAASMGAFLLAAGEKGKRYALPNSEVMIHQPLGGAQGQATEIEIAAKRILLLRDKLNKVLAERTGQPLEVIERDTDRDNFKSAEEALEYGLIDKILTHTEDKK
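ClpP 10 microg/mL final, pH 8 Tris/KCl buffer with BSA, glycerol, Tween-20; compound pinned in; FRET-FV substrate; RT 20 min; Ex320/Em430; ΔFRET vs ADEP 5.8 microM, DMSO, no enzyme.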
TRPML1 agonist: agonists of human TRPML1 channel. TRPML1-expressing cells, Ca2+ dye fluorescence, FDSS; host cell line not named in the record; reference of the full effect not given here. activation, % (test concentration not listed). hit rate 0.12% among 410,000; in the data active = activation above about 50%; inconclusive = about 30% to 50%; inactive = below about 30%; note: 0% is about no effect; the text of the record puts the active cut at 80%
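Calcium fluorescence on an FDSS kinetic reader gave the read-out. Tet-induced TRPML1-DL cells were plated overnight, dye-loaded (Ca8 with quencher, 45-90 min, room temperature, dark), then read 110 s after compound addition, and again 110 s after 4uM final 54-4 (EC80).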
Menin MLL FP FL: menin-MLL binding inhibition, fluorescein peptide; Fluorescence polarization, fluorescein-MLL peptide displacement from menin; FP activity change, % at 61.4 µM; 290,000 tested, under 10 active; AID 1766; inconclusive = falling polarisation curve, or a change in total fluorescence; inactive = total fluorescence flat and polarisation flat or rising; no compound was filed as active; the % refers to the polarisation; negative = inhibition;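 note: % of control where 0% means no effect; inhibitors lower the polarisation; unlabelled MLL peptide was the positive control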
gsp antagonist: antagonists of gsp mutant (McCune-Albright syndrome). hit rate 0.4% among 340,000. Potency, µM (highest dose often 76.9 µM), inactives show top-dose activity change, negative = inhibition, most hits filed as inhibitors. gsp-mutant cells, cAMP HTRF, 30 min; control for the full effect not named in the record; active = falling curve of any shape with a large fitted effect; inconclusive = falling curve, mostly with a smaller effect; inactive = flat or rising curve; cell line not stated here;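 note: intracellular cAMP measured with PDE inhibitor Ro 20-1724 present during compound exposure; potency is the fitted concentration of half-maximal effect; % is set by controls: 0 for no effect and ±100 for the full control effect; nearly all actives have a fitted effect of over 65% in size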
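G418-selected cells were plated in DMEM/10% FBS for 16-24 h at 37C, then treated with compounds plus the PDE inhibitor […] (300 uM solution added) for 30 min at 37C. Intracellular cAMP was measured by HTRF after 30 min lysis at room temperature.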
gsp ag: agonists of gsp mutant (McCune-Albright syndrome). gsp mutant cells, cAMP HTRF, 30 min; control for the full effect not named in the record. Potency, µM (doses to about 76.9 µM), for inactives: top-dose activation (cAMP increase), hits mostly activators. hit rate 0.13% among 340,000. AID 624287; active = well fitted activation curve with a large enough effect; inconclusive = small, poorly fitted or top-dose-only effect, or another doubt; inactive = no such curve, though single readings can be large or run the other way; cell line not stated here;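 note: phosphodiesterase inhibitor Ro 20-1724 added with compounds to block cAMP breakdown; potency is the fitted concentration of half-maximal effect; nearly all actives have a fitted effect of over 60% in size; about a fifth of the inactives were tested at one dose only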
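Cells in DMEM/10% FBS with G418 were pretreated with compounds in DMSO plus […] (300 uM stock) for 30 min at 37C. cAMP was measured by HTRF (cAMP-d2 plus anti-cAMP antibody-K) after 30 min at room temperature.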
* = called active by the depositor; ? = inconclusive; . = not tested or not shown; & = joins results of further samples; [ ] = another dose, or the depositor's remark.

SMILES | TRPML1 inh | ClpP mod | TRPML1 agonist | Menin MLL FP FL | gsp antagonist | gsp ag
C=CCN1N=C(/C=C/c2ccc(C)cc2)CCC1=O | 24 | . | 2.7 | 2.8 | . | -14%[15.4 µM]
COc1ccc(-c2cc3nc(C)c(CCC(=O)Nc4ccc(F)cc4F)c(C)n3n2)c(OC)c1 | -1 | 3.5% | -1.0 | . | . | .
CCc1ccc2nc(NC(=O)CN3C(=O)NC4(CCCC4)C3=O)sc2c1 | 2 | . | 1.7 | . | -4% | 7%
CC(C)(C)OC(=O)N1CCC(c2c(C(=O)Nc3ccc4c(c3)OCCO4)cnn2-c2ccc(F)cc2F)CC1 | -1 | -4.2% | 0.8 | . | . | .
CC1Cc2ccccc2N1C(=O)CSc1nnc(NC(=O)Cc2cccs2)s1 (centres undefined) | 13 | -0.7% | -1.4 | 11 | 2% | 17%
CCCn1c(SCC(=O)c2ccc3c(c2)NC(=O)CO3)nc2ccccc21 | 2 | -0.9% | 0.2 | 7.6 | -20% | 15%
O=C(CSc1nc(=O)n(CCCN2CCOCC2)c2c1CCCC2)Nc1ccc(F)cc1F | -9 | -6.9% | -0.1 | . | 6% | 0%[15.4 µM]
COc1cc(/C=C2/C(=O)NN(c3ccc(Cl)cc3)C2=O)cc(Br)c1O | 16 | . | -0.1 | ? | -9% | -38%[inhibitor]
CN(C(=O)Cn1cc(C#N)c2ccccc21)c1ccccc1 | -9 | . | -0.9 | 2.2 | -66% | 19%[15.4 µM]
O=C(N/N=C/c1cccnc1)c1cccs1 | -1 | . | -0.3 | -2.0 | 8% | 20%
CC(C)=CCC/C(C)=C/CNC(=O)CC1C[C@H](C(=O)N2CCCCC2)[C@@]2(C)c3[nH]c4ccccc4c3CCN2C1=O (some centres undefined) | 30 | 0.3% | -0.1 | . | -5% | .
CC(NS(=O)(=O)c1ccc(Br)cc1)C(=O)NC1CCCCCC1 (centres undefined) | 2 | 1.1% | -0.1 | . | -8% | 16%
CSc1nsc(SCc2ccc(F)cc2)n1 | -1 | 0.7% | 2.9 | 2.4 | 4% | 20%
O=C(O)c1ccc(N/N=C/c2ccc3ncccc3c2)cc1 | -1 | -0.2% | -0.1 | 0.4 | -11% | 4%
C(=N\Nc1nc(-c2ccccc2)cs1)/c1ccco1 | -13 | -3.7% | 0.9 | 1.7 | -5% | -63%[inhibitor]
O=C(O)c1ccccc1OCCOc1ccccc1 | -11 | 0.7% | -1.8 | 0.4 | 8% | -8%
CC[C@H](C)C(C(=O)N1CCN(C(=O)OC(C)(C)C)CC1)n1cc(C(CC(C)C)NC(=O)OC(C)(C)C)nn1 (some centres undefined) | -9 | 1.2% | -1.2 | 3.7 | -7% | 7%
O=C(O)CCCN1C(=O)C2C3CC(C2C1=O)C1C(c2ccccc2)c2sc(=O)n(-c4ccccc4)c2SC31 (centres undefined) | 5 | . | 0.5 | -4.2 | -11% | -2%
C/C=C(/C)C(=O)Nc1cccc(C2=NOC3(C2)C[C@H](C(N)=O)N(C(=O)c2ccc(Cl)cc2)C3)c1 (some centres undefined) | 1 | 1.7% | -0.7 | 2.8 | 0% | -43%[inhibitor]
O=C1CN(C(=O)c2ccccc2)C(c2ccc(F)cc2)c2cc(Br)ccc2N1 (centres undefined) | -12&16 | 0.4%&-0.5% | -1.4&-1.3 | 1.1 | 0% | 12%[15.4 µM]
CCOC(=O)c1ccc2c(c1)N(Cc1cccc(OC)c1)C(=O)c1ccccc1S2(=O)=O | 28 | -20% | 3.5 | . | . | .
O=C(OCc1c(Cl)cccc1Cl)c1cccnc1 | -1 | 1.6% | -0.5 | 4.3 | 0% | 1%
Cc1ccc(Cn2nnnc2CN2CCC(NC(=O)c3ccccc3F)CC2)cc1 | 4 | -1.1% | -0.9 | 0.5 | 0% | 8%
COc1ccc(CNC(=O)COC(=O)/C=C/c2cccc(Cl)c2)cc1 | 8 | . | 2.6 | . | -10% | -9%
Cc1cc(C(=O)CSc2ccc(F)cc2)cc(C)c1OC(=S)N(C)C | 18 | -2.9% | 1.4 | -0.9 | -17% | -13%
COc1ccc(CCNC(=O)c2ccc(Cl)cc2Cl)cc1 | -7 | 1.2% | 4.8 | -0.7 | -3% | 5%
CCC1Oc2ccccc2N(CC(=O)N2CCCC2)C1=O (centres undefined) | -2 | 0.1% | 0.3 | . | . | 41%
COc1ccc(CCNC(=O)Nc2ccc3c(c2)c(=O)n(C)n3Cc2ccc(Cl)cc2)cc1OC | 20 | 4.7% | -0.1 | . | . | .
COc1ccc(Cl)cc1S(=O)(=O)N1CCCC(C(=O)NCCc2ccccc2)C1 (centres undefined) | 0 | -1.6% | -0.1 | . | -8% | 8%
c1csc(-c2nc(N3CCCCC3)no2)c1 | -3 | . | 0.9 | 1.2 | 11% | 6%
S=C(c1cn(CCOc2cccc3ccccc23)c2ccccc12)N1CCCC1 | 3 | -1.2% | 1.6 | 12 | -8% | -6%[15.4 µM]
CCCN(CCC)CCNC(=O)c1cc2c(C)nc3ccccc3c2o1 | 21 | ? | 0.5 | 4.0 | 0% | ?
CCOc1ccccc1N(CC(=O)Nc1ccc2c(c1)OCO2)S(C)(=O)=O | 12 | 0.6% | 0.0 | 0.4 | -7% | -4%
COc1ccc(NC(=O)Cn2nc(SC)c(S(=O)(=O)c3ccc(C)cc3)c2N)cc1OC | 12 | 0.9% | -0.3 | . | . | .
COc1ccc(C(=O)N/N=C(\C)Cn2cnc([N+](=O)[O-])n2)cc1 | 3 | 1.5% | 0.0 | -0.1 | 16% | 3%[15.4 µM]
CC1CC(C)(C)CC2(C1)NC(=O)N(CC(=O)Nc1ccc(N3CCCCC3)cc1)C2=O (centres undefined) | -10 | -2.9% | 0.3 | . | 6% | 1%
Cc1ccc(N(CC(=O)NCc2ccc(F)cc2)C(=O)CCC(=O)Nc2ccccn2)cc1C | -10 | 2.6% | 0.5 | 1.9 | 5% | -2%[15.4 µM]
CCC(=O)Nc1nonc1-c1nc2ccccc2n1N(C(=O)CC)C(=O)CC | 7 | 28µM* | -1.1 | 14 | 9% | -12%
Oc1ccc(CCNc2c3ccccc3nc3ccccc23)cc1O | 1 | . | 0.7 | -4.6 | -13% | -25%
COc1cc(C(N)=O)ccc1OCc1ccccc1 | 1 | -3.8% | -0.7 | -0.2 | -13% | 1%
COc1cc(NC(=O)c2cccnc2Sc2ccc(Cl)cc2)cc(OC)c1OC | 27 | 62% | 0.4 | -0.7 | -3% | -7%
Cc1nn(C)c(Oc2ccccc2)c1CCNS(=O)(=O)c1ccccc1 | 2 | -0.8% | 0.7 | 1.6 | -16% | 11%
O=C1CSC(c2ccccc2[N+](=O)[O-])N1CCc1ccccc1 (centres undefined) | -9 | -0.6% | 5.3 | -1.4 | 3% | 9%
NC(=O)c1cccc2c1-c1ccccc1/C2=N/NC(N)=S | 6 | -0.9% | -0.4 | -1.8 | -10% | -29%
CCc1noc(C)c1C(=O)Nc1nc(-c2ccc(F)cc2)c(C)s1 | 3 | -0.6% | 1.6 | . | -24% | 33%
COc1ccc(Cn2ccc3nc(C)c(C(=O)NCc4ccc(F)cc4)cc3c2=O)cc1 | 10 | -7.1% | 1.1 | . | . | .
CC(C)c1c(C(=O)N/N=C/c2ccc(OCc3ccc(F)cc3)cc2)nnn1-c1nonc1N | -4 | 24% | 1.7 | 0.9 | -30% | 14%
Cc1cc(NC(=O)Nc2ccc(F)cc2)no1 | 1 | -1.2% | 4.2 | 3.9 | -13% | -29%
CC(C)C(=O)NC(c1cccs1)c1cc([N+](=O)[O-])c2cccnc2c1O (centres undefined) | -9 | -1.5% | 1.8 | -1.2 | -19% | ?
COC(=O)c1ccc(C(=O)OC)c(NC(=S)N2CCN(c3cccc(Cl)c3)CC2)c1 | 48 | 1.8% | 0.2 | 7.4 | -4% | 3%
CCC(CCC(=O)Nc1ccc(S(N)(=O)=O)cc1)C(=O)O (centres undefined) | 2 | -1.8% | -0.3 | -3.4 | 3% | -35%[inhibitor]
Cc1ccccc1NC(=O)N(CCc1nc2ccccc2[nH]1)Cc1ccccc1 | -3 | 0.7% | 0.0 | 4.8 | -6% | -12%
CCN1CCN(C(=O)CCc2nnc(CCCCc3ccccc3)o2)[C@@H](C)C1=O | -2 | -0.1% | -1.6 | 0.7 | -18% | -4%[15.4 µM]
CCN(CC)CCN(Cc1cc2cc3c(cc2[nH]c1=O)OCCO3)C(=S)NCCCOC | 4 | -0.7% | -0.2 | 4.0 | -7% | 17%[15.4 µM]
O=C(O)CCCNS(=O)(=O)c1ccc2ccccc2c1 | -8 | -4.3% | 0.1 | 1.4 | 24% | 19%
CC(=O)N(CN1C(=O)c2ccccc2C1=O)c1ccccc1 | -7 | -1.6% | -0.1 | 4.5 | -1% | 10%
COc1ccc(CNC(=O)c2cc(=O)c3cc(C)c(C)cc3o2)cc1 | 53 | -3.6% | 0.9 | -0.2 | -2% | -16%
O=C(NC1CCCCCC1)c1cc2c(=O)n3ccccc3nc2s1 | 8 | . | -0.2 | 4.4 | 8% | 30%[15.4 µM]
O=C(Nc1ccc(F)cc1)N1CCCCCC1 | 31 | -0.6% | 1.8 | 1.4 | 10% | -12%
O=C(/C=C/c1ccc(Br)o1)NC(c1ccccc1)c1ccccc1 | 2 | -0.9% | 1.0 | 4.9 | -23% | -28%

More compounds follow:
SMILES | TRPML1 inh | ClpP mod | TRPML1 agonist | Menin MLL FP FL | gsp antagonist | gsp ag
CC1CN(C(=S)SCC(=O)c2ccc(Cl)cc2)CC(C)O1 (centres undefined) | -9 | 1.4% | -0.7 | ? | -7% | -4%
CCC(=O)Nc1cc(=O)[nH]c2nc(-c3ccc(Cl)cc3)nn12 | . | -6.9% | . | 0.4 | ? | -26%
CCc1nc2ccccc2c(C(=O)Oc2cccc3cccnc23)c1C | 4 | -1.9% | 1.5 | 0.0 | -10% | -12%
COc1ccc(CNC(=O)CCOc2ccc(C(C)(C)C)cc2)cc1 | -10 | 0.9% | 1.3 | 1.2 | -3% | 21%
O=C(CN1C(=O)CNC1=O)Nc1ccc(Cl)cc1 | 24 | 2.0% | 0.3 | 1.0 | 13% | -9%
CC1CCN(S(=O)(=O)c2cccc(C(N)=O)c2)CC1 | -4 | -6.9% | 0.7 | 2.3 | -14% | -60%[inhibitor]
Fc1ccc(C2=NOC(c3nnc(-c4ccccc4)o3)C2)cc1 (centres undefined) | 2 | -2.0% | -1.1 | -13 | 11% | ?
